2A StopGo: FMDV 2A StopGo reporter, luciferase signal. 1.2% of 410,000 active. human cells with a luciferase reporter of 2A StopGo recoding; control for the full effect not named in the record. Potency, µM (highest dose often 57.9 µM), for the others: at the highest dose signal change, negative = less light. AID 1159524; active = well fitted falling curve with a large enough effect; inconclusive = small, poorly fitted or top-dose-only effect; inactive = no such curve, though single readings can be large or run the other way; tested in HEK293T cells; also: % is scaled to controls: 0 for no effect and ±100 for the full control effect; nearly all actives have a fitted effect of over 45% in size; luciferase light after 4 h
Lassa entry inh: Lassa virus entry inhibition; Lassa virus pseudotype entry inhibition, cell reporter; control for the full effect not named in the record; Potency, µM (doses to about 37.9 µM), without a hit: at the highest dose activity change, negative = inhibition, actives largely listed as inhibitors; 1.2% of 300,000 active; active means well fitted inhibition curve with a large enough effect; inconclusive means small, poorly fitted or top-dose-only effect, or effect the other way; inactive means flat fitted curve, though single readings scatter; tested in HEK293 cells; also: % is scaled to controls: 0 for no effect and ±100 for the full control effect; nearly all actives have a fitted effect of over 50% in size; luciferase read-out
SARS PLP yeast: blocks SARS-CoV papain-like protease in a yeast assay; 0.19% of 330,000 active; Potency, µM (doses to about 32.9 µM), inactives show top-dose activity, positive = growth rescue; AID 485353; S. cerevisiae expressing SARS-CoV PLpro, growth rescue; control for the full effect not named in the record; active means well fitted rising curve with a large enough effect; inconclusive means small, poorly fitted or top-dose-only effect; inactive means no such curve, though single readings can be large or run the other way; also: 0% is about no effect; nearly all actives have a fitted effect of over 55% in size; growth read by luminescence after 48 h
RE007 growth inh: less growth of the S. pombe RE007 Vpr strain; S. pombe RE007 Vpr strain, BacTiter-Glo ATP luminescence, 24 h; control for the full effect not named in the record; Potency, µM (top dose mostly 92.2 µM), without a hit: top-dose activity change, negative = less growth; 0.21% of 360,000 active; AID 651644; active = well fitted falling curve with a large enough effect; inconclusive = small, poorly fitted or top-dose-only effect; inactive = no such curve, though single readings can be large or run the other way;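 also: % is scaled to controls: 0 for no effect and ±100 for the full control effect; nearly all actives have a fitted effect of over 50% in size; the assay follows cell death caused by Vpr and the record does not say whether a fall means rescue or toxicity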
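Fission yeast strain RE007, carrying one chromosomally integrated HIV-1 vpr copy, was seeded at OD 0.01 in PMG+AL medium with 23 nL pinned compound. After 24 h at 30 °C and 99% humidity, viability was read by BacTiter-Glo luminescence.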
The depositor's hits bear a star; ? = inconclusive; / = not tested or not shown; [ ] = another dose, or the depositor's remark. Potency is read from the fitted curve at half-maximal effect. A portion of the library. The share of hits here may be higher or lower than overall.

SMILES | 2A StopGo | Lassa entry inh | SARS PLP yeast | RE007 growth inh
CCN(c1ccccc1)S(=O)(=O)c1cccc(C(=O)NCCN2CCOCC2)c1 | -6% | / | -3% | 7%
Cc1c(NC2(C#N)CCCC2)c(=O)n(-c2ccccc2)n1C | -2% | / | 0% | -4%
COc1ccc(NC(=O)c2cc(C)on2)cc1 | 67%[activator] | / | 0% | -7%
COCCCn1c(SCC(=O)N2CCOCC2)nc2cc(Cl)ccc2c1=O | -26% | / | -2% | 5%
CC1CCN(S(=O)(=O)N2CCC(C(=O)NC3CCCC3)CC2)CC1 | -20% | / | 1% | 6%
Cc1ccccc1CN(C)CCc1ccccn1 | -12% | / | -1% | -12%
CCCN(CCC)c1nc(Cl)nc(NCCN2CCOCC2)n1 | ? | / | 2% | -6%
CON(C)C(=O)CCN(Cc1ccccc1)C(=O)OC(C)(C)C | -10% | / | 1% | 4%
COc1ncc(-c2ccc3c(c2)S(=O)(=O)c2cccc(C(=O)O)c2C3=O)cn1 | 2% | / | 1% | 5%
CCCN(C1CCS(=O)(=O)C1)S(=O)(=O)c1cc(OC)ccc1OC (configuration not stated) | -4% | / | -4% | 3%
CCc1ccc(C(=O)Nc2cc(S(=O)(=O)N3CCOCC3)ccc2N2CCOCC2)cc1 | 1% | / | 1% | -13%
Cn1c(N)c(C(=O)CSc2nc3ccccc3c(=O)n2CCCN2CCOCC2)c(=O)n(C)c1=O | 7% | / | 0% | 8%
Cc1ccc(C)c(NC(=O)C(c2ccccc2)N2CCN(CC(=O)N3CCOCC3)CC2)c1 (configuration not stated) | -24% | / | -1% | 9%
O=C1C=C(c2ccc3[nH]ccc3c2)C[C@@H](c2ccc(F)cc2)C1 | 67%[activator] | / | -1% | 4%
C=CCC[C@H](Cc1ccc(F)cc1)C(=O)OC[C@H](C)NC(=O)[C@@H](CC=C)CC(=O)N[C@H](CO)Cc1ccccc1 | ? | / | 4% | 1%
Cc1ccccc1-c1cc(C(=O)NCc2cccs2)nn1CC1CC(c2cccc([N+](=O)[O-])c2)=NO1 (configuration not stated) | 5% | / | -3% | -7%
O=C(OCc1nnc(-c2ccc([N+](=O)[O-])cc2)o1)C1CCN(C(=O)c2ccc(F)cc2)CC1 | -20% | / | 0% | -1%
NS(=O)(=O)c1ccc(CCNC(=O)COC(=O)C2COc3ccccc3O2)cc1 (configuration not stated) | -9% | / | 0% | -6%
O=C1C=C(NNC(=O)c2cccnc2)CC(c2ccco2)C1 (configuration not stated) | -12% | / | 0% | 11%
COC(=O)[C@]1(C)N[C@H](c2ccc(SC3CCCCC3)c(OC)c2)[C@@H]2C(=O)N(C)C(=O)[C@@H]21 | -19% | / | 3% | -10%
COc1ccc(CN2CCN(C(=O)C3CCN(C(=O)Nc4ccccc4)CC3)CC2)cc1OC | -10% | / | 3% | 0%
COc1cc(S(=O)(=O)Nc2ccccc2C(=O)N2CCCCC2)ccc1NC(C)=O | 22% | / | 7% | 5%
CN(C(=O)c1cccc(NC(=O)Cc2ccc([N+](=O)[O-])cc2)c1)C1CC1 | -5% | / | 2% | 8%
O=C(COC(=O)Cn1[nH]c(=O)c2ccccc2c1=O)NNC(=O)c1ccccc1 | -8% | / | -9% | 3%
O=C(CSc1ccc(Cl)cc1)NC(=O)c1ccccc1 | -1% | / | -3% | 1%
C=C(C)CN1CCN(c2ccc(N3C(=O)CCCC3=O)cc2[N+](=O)[O-])CC1 | -5% | / | 3% | 9%
COc1ccc(S(=O)(=O)N(C)C)cc1NC(=O)c1ccc2c(c1)OCCO2 | -2% | / | -5%[6.58 µM] | 21%
CN(C(=O)c1ccc(NC(=O)Cc2cccc(NC(=O)C3CCN(C(=O)C4CCCCC4)CC3)c2)cc1)C1CCCC1 | -7% | / | 1% | 4%
O=C(COC(=O)CNC(=O)c1ccco1)Nc1ccccc1OC(F)F | -4% | / | 0% | 0%
CC1CC(C)CN(C(=O)c2ccc(-c3ccc([N+](=O)[O-])cc3)o2)C1 (configuration not stated) | 25% | / | 3% | ?
COc1ccc(-c2cn(Cc3ccc(C(N)=O)cc3)c(CCN)n2)cc1 | 20% | / | 5% | -6%
CCOc1ccccc1OCCC(=O)N1CCN(S(=O)(=O)c2ccccc2[N+](=O)[O-])CC1 | -21% | / | -4% | -5%
O=C(OCC(=O)N1CCN(c2ccccc2)CC1)c1ccncc1 | -20% | / | 3%[6.58 µM] | -5%
O=C(CN1C(=O)NC(Cc2ccccc2)C1=O)Nc1ccc(OC(F)(F)F)cc1 (configuration not stated) | -8% | / | 7% | 1%
CCOC(=O)N1CCC(NC(=O)c2cc(C(=O)Nc3ccc(S(=O)(=O)N4CCCCC4)cc3)ccc2CO)CC1 | -12% | / | 0% | 0%
CCCOc1cc(C)c(S(=O)(=O)NCc2cccs2)cc1C | 46%[activator] | / | -13% | ?

Single records (already shown):
`O=C(CSc1ccc(Cl)cc1)NC(=O)c1ccccc1` as listed: 2A StopGo: -1%; Lassa entry inh: /; SARS PLP yeast: -3%; RE007 growth inh: 1%
`CC1CC(C)CN(C(=O)c2ccc(-c3ccc([N+](=O)[O-])cc3)o2)C1` (configuration not stated) as listed: 2A StopGo: 25%; Lassa entry inh: /; SARS PLP yeast: 3%; RE007 growth inh: ?

Next part.
SMILES | 2A StopGo | Lassa entry inh | SARS PLP yeast | RE007 growth inh
O=C(Nc1nc(-c2ccccn2)cs1)c1ccc(F)c(S(=O)(=O)N2CCOCC2)c1 | ? | / | 1% | 5%
O=C(Nc1ccc(N2CCOCC2)cc1)c1ccc(Cl)c(S(=O)(=O)N2CCCC2)c1 | ? | / | -2% | -14%
CC(C)COc1ccc(C(=O)NNC(=O)c2ccc(=O)[nH]c2)cc1 | 0% | / | -2% | 7%
COc1ccc(S(=O)(=O)N2CCC(C(=O)N(C)Cc3ccc(C)o3)CC2)cc1OC | -9% | / | 1% | -11%
CC(C)(C)OC(=O)C[C@H]1C/C=C\C[C@@H](CC(=O)N(CCO)Cc2ccccc2)C(=O)N2CCC[C@@H]2COC1=O | -19% | / | 1% | -7%
N#Cc1ccccc1OCC(=O)OCC(=O)c1c[nH]c2ccccc12 | -15% | / | -4% | 3%
COc1ccc(NC(=O)N(C)C[C@H]2Oc3ccc(NC(=O)Nc4ccc(C(F)(F)F)cc4)cc3C(=O)N([C@H](C)CO)C[C@@H]2C)cc1 | -25% | / | -1% | -3%
Cc1ccc(S(=O)(=O)CCC(=O)OCCOc2cccc(Br)c2)cc1 | -10% | / | 4% | -5%
CCc1cccc(C)c1NC(=O)CCCN1C(=O)NC(C)(C)C1=O | 0% | / | -4% | 11%
CCCC(=O)Nc1cc(Cl)ccc1C | -12% | / | 4% | 185%
COc1ccc(C2CC(c3ccccc3Cl)=NN2c2ccc(S(N)(=O)=O)cc2)cc1 (configuration not stated) | ? | / | 3% | 19%
O=C(COC(=O)Cc1ccc(Br)cc1)Nc1ccc(Cl)cn1 | -10% | / | -2% | 0%
CCCCN(C(=O)c1ccco1)c1c(N)n(CCC)c(=O)[nH]c1=O | -20% | / | -7% | 15%
COc1ccc(NC(=O)c2noc3c2CCCCC3)cc1 | 10% | / | -4% | -18%
C=CCC[C@H](Cc1ccc(F)cc1)C(=O)O[C@H](CNC(=O)[C@@H](CC=C)CC(=O)N(CCO)Cc1ccccc1)c1ccccc1 | 40µM* | / | 8% | 6%
C[C@H](CO)N1C[C@H](C)[C@@H](CN(C)C(=O)Nc2ccc3c(c2)OCO3)Oc2ccc(NC(=O)CCC(F)(F)F)cc2C1=O | 2% | / | 1% | -8%
Cn1cnc(C(=O)N2CCN(C(=O)OC(C)(C)C)CC2)c1C(=O)N1CCN(C(=O)OC(C)(C)C)CC1 | -15% | / | -14% | 2%
CN(C)CCCN(C(=O)CCOc1ccccc1)c1nc2c(F)cccc2s1 | -13% | / | -9% | -15%
Cc1ccc(-c2cc(C(F)F)nc3sc4c(=O)[nH]cnc4c23)cc1 | -3% | / | -3% | -17%
CC1=NOC(=O)/C1=C\c1ccc(-c2ccccc2Br)o1 | 25µM* | / | -15% | ?
COc1ccccc1CNC(=O)COC(=O)c1ccco1 | 38%[activator] | / | -3% | 18%
Cc1ccc(NC(=O)c2ccc(S(=O)(=O)N3CCCCC3)cc2)nc1 | -4% | / | -3% | 1%
CSc1ccc(Cl)c(C(=O)OCC(=O)N2CCNC2=O)c1 | -5% | / | 10% | -5%
COCCN(CC(=O)Nc1cccc(C)c1C)C(=O)Cc1cccs1 | -4% | / | 3% | -11%
CCCCN1CC(COCc2ccccc2)Oc2cccc(Oc3ccccc3)c2S1(=O)=O (configuration not stated) | 14% | ? | / | 2%
COc1ccc(C(=O)N2[C@@H](C(C)C)COc3cc(Br)ccc3S2(=O)=O)cc1 | 0% | ? | / | -10%
COc1ccc([C@H]2C[C@H](O)[C@@H](n3cc(-c4ccc(F)cc4)nn3)CN2Cc2cccs2)cc1 | ? | ? | / | -6%
Cc1ccccc1-c1ccc(CN2C(C(C)C)C(=O)N(Cc3cn(CCC4OCCO4)nn3)CCS2(=O)=O)cc1 (configuration not stated) | ? | -21%[46.1 µM] | / | 17%
COc1ccc(CNS(=O)(=O)c2ccc(F)cc2Br)cc1 | 7% | ? | / | 4%
CNC(=O)C[C@H]1C(=O)N(CCc2ccccc2)C[C@@H]1Cc1ccccc1 | 19% | 0%[46.1 µM] | / | -15%
Cn1ccc2c(-c3ccc(C(C)(C)C)cc3)cc3c(c21)C1CCC3C1 (configuration not stated) | -13% | 1%[46.1 µM] | / | 7%
CC(C)C1C(=O)N(Cc2cn(CCC3OCCO3)nn2)CCS(=O)(=O)N1Cc1ccc(-c2ccc(F)cc2)cc1 (configuration not stated) | -21% | ? | / | 8%
CNC(=O)C[C@H]1C(=O)N(c2ccc(OC)cc2)C[C@@H]1CSC | -24% | ? | / | -1%
Cc1ccc([C@H]2C[C@H](n3cc(C4CC4)nn3)[C@@H](O)CN2CC2CCCCC2)cc1 | ? | ? | / | -24%
COc1ccc(NC(=O)C[C@H]2C(=O)N(c3ccccc3)C[C@@H]2CSC)cc1 | -12% | ? | / | -5%
COc1ccc(-c2cc3c(c4c2ccn4C)C2CCC3C2)cc1 (configuration not stated) | 0% | ? | / | -8%
O=C(Nc1cccc(C(=O)N2CCCCC2)c1)C1CCCC1 | -12% | 6%[46.1 µM] | / | -15%
O=C(NCCc1ccccc1)c1cccc(NC(=O)C2CCCC2)c1 | 52%[activator] | ? | / | -4%
COc1ccccc1CNS(=O)(=O)CCNCc1ccco1 | -2% | ? | / | -8%
COc1ccc(NC(=O)C[C@@H]2C(=O)N(c3ccc(OC)cc3)CC2(C)C)cc1 | -25% | ? | / | -7%
CC(C)C1C(=O)N(Cc2cn(CCC3OCCO3)nn2)CCS(=O)(=O)N1Cc1ccc(-c2cccc(N(C)C)c2)cc1 (configuration not stated) | -9% | -5%[46.1 µM] | / | 8%
COc1ccc(-c2cc3c(c4c2ccn4C)C2CCC3C2)cc1F (configuration not stated) | -17% | ? | / | -7%
O=C(c1ccco1)N1CCN(C2CN(C3CCCCC3)S(=O)(=O)C2)CC1 (configuration not stated) | -11% | -10%[46.1 µM] | / | 3%
COc1ccccc1CNS(=O)(=O)CCNCCc1ccccc1 | 9% | -5%[46.1 µM] | / | 10%
O=S(=O)(CCNCCc1ccccc1)NC1CCCCC1 | 39%[activator] | 10%[46.1 µM] | / | -17%
CC(C)C1C(=O)N(Cc2cn(CC3CCCCC3)nn2)CCS(=O)(=O)N1Cc1ccc(-c2ccncc2)cc1 (configuration not stated) | -15% | -37%[46.1 µM] | / | 13%
Cn1ccc2c(-c3cccc4ccccc34)cc3c(c21)C1CCC3O1 (configuration not stated) | -4% | -8%[46.1 µM] | / | -18%
COc1ccc(-c2ccc(CN3C(C(C)C)C(=O)N(Cc4cn(CC5CCCCC5)nn4)CCS3(=O)=O)cc2)cn1 (configuration not stated) | -10% | ? | / | 10%
Cc1ccc([C@H]2C[C@@H](n3cc(-c4ccc(F)cc4)nn3)[C@H](O)CN2Cc2cccs2)cc1 | -3% | 0%[46.1 µM] | / | -12%
COc1ccc(NC(=O)C[C@H]2C(=O)N(CCc3ccccc3)C[C@@H]2Cc2ccccc2)cc1 | -18% | 16µM* | / | -7%
CC(C)(C)OC(=O)N1CCC(C(=O)Nc2cccc(C(=O)NCCCc3ccccc3)c2)CC1 | ? | -4%[46.1 µM] | / | 1%
CC(C)C1C(=O)N(Cc2cn(CC3CCCCC3)nn2)CCS(=O)(=O)N1Cc1ccc(-c2ccc(F)cc2)cc1 (configuration not stated) | ? | ? | / | 14%
